SmPrx2 inh: inhibitors of Schistosoma mansoni peroxiredoxin 2; 65,000 compounds, 0.07% hits; Potency, µM; S. mansoni Prx2 activity coupled to TGR/GSH (TGR is thioredoxin glutathione reductase), NADPH fluorescence loss, qHTS; some inactives read as strong as hits; AID 448; active means full or partial inhibition curve with a strong effect at the top dose; inconclusive means weaker partial or single-point curve; inactive means no accepted curve; also: series up to 57 µM; many of its hits are not listed in these tables
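Prx2 inhibition was measured as reduced NADPH consumption when electrons flowed from NADPH through TGR and glutathione to Prx2 and H2O2. Plates were read kinetically over 8 min; enzyme reagents were held at 4 deg C during dispensing.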
Anthrax LT inh: blocks cellular internalization of anthrax lethal toxin. Potency, µM (highest dose often 40 µM), for the others: top-dose activity change, negative = inhibition, actives largely listed as inhibitors. 70,000 compounds, 0.67% hits. Cells, anthrax lethal toxin internalization, FRET ratio (460/530). AID 912; active = well fitted falling ratio curve with the 530 nm signal flat; inconclusive = other ratio curves, or a change in one channel alone; inactive = flat curves in the ratio and both channels; the % refers to the ratio; also: % is scaled to controls: 0 for no effect and ±100 for the full control effect; nearly all actives have a fitted effect of over 50% in size; tested in ME-180 cells; beta-lactamase reporter
* marks the source's active call; other numbers are inactive results; u = inconclusive; x = no result given; [ ] = dose if it differs, or a comment. Potency is read from the fitted curve at half-maximal effect. Not all compounds are listed; rates above refer to the full screens.

SMILES	SmPrx2 inh	Anthrax LT inh
O=C(c1ccco1)N1CCN(Cc2nnnn2CCc2ccccc2)CC1	>57	-2%
N#CC1=C(N)n2c(s/c(=C\c3ccco3)c2=O)=C(C#N)C1c1ccco1 (configuration not stated)	>57	-6%
CC(C)Cc1cc(C(=O)NCCc2ccccc2)no1	>57	-23%
COC(=O)C1=C(C)NC(=O)NC1c1ccc(OCC(=O)N2CCCCC2)cc1 (configuration not stated)	>57	-6%
CC1CN(C(=O)c2cc3c(s2)CCC3)CC(C)O1 (configuration not stated)	>57	u
COc1ccc(CNc2nc(-c3cccc(C#N)c3)nc3ccccc23)c(OC)c1	>57	-14%
CCCC/C=C/C(NC(=O)c1ccc(C(=O)OC)cc1)c1ccccc1 (configuration not stated)	>57	-17%
CC(C)CC(NC(=O)C1CCCCC1)C(=O)NCc1ccccn1 (configuration not stated)	>57	0%
Cn1nc(C(=O)NCc2ccc(F)cc2)c2ccccc2c1=O	>57	1%
CC(C)(C)OC(=O)NCCCC(CCCNC(=O)OC(C)(C)C)C(=O)O	>57	-2%
COc1ccccc1N1CCN(C(=O)c2oc3ccccc3c2C)CC1	>57	-14%
CCc1nn(CC(=O)NCCN2CCN(C)CC2)c(=O)c2cc3occc3n12	>57	-12%
CCN(CC)[C@@H](C)C(=O)N1c2ccccc2Sc2ccccc21	>57	u
CCC/C=C(\CCC)C(NC(=O)c1cccs1)c1ccc(C(F)(F)F)cc1 (configuration not stated)	>57	-22%
O=C(CN(CCCN1CCOCC1)C(=O)Cn1nnc(-c2ccc(F)cc2)n1)NC1CCCCC1	>57	5%
O=C1CN(C(=O)CSc2nnnn2-c2ccc(Cl)cc2)c2ccccc2N1	>57	-6%
C=CCn1c(SCC(=O)Nc2ccc3c(c2)OCCO3)nnc1-c1ccco1	>57	0%
CC(C)NC(=O)N1CCCC2(CCN(S(=O)(=O)c3ccccc3)CC2)C1	>57	u
O=S(=O)(c1ccc(N2CCCC2)cc1)C(F)(F)F	>57	u
O=C(CN1CCC(n2nnc3cc(C(F)(F)F)ccc32)CC1)N1CCc2ccccc21	>57	-4%
O=C(Cn1nc(-c2ccccc2)ccc1=O)NCC1COCCO1 (configuration not stated)	>57	8%
Oc1ccc2cc(SSc3ccc4cc(O)ccc4c3)ccc2c1	x	u
Cn1c(CN2CCOCC2)nnc1SCC(=O)Nc1ccc2c(c1)OCCO2	>57	5%
Cc1nc(NC2CCCCC2)c2nc(-c3ccccc3)n(CC3CCN(C)CC3)c2n1	x	-7%
COC(=O)C1=C(C(=O)c2ccc(C)cc2)C(c2ccc(OC)c(OC)c2)n2nnnc2N1 (configuration not stated)	>57	0%
O=C1CC(N2CCN(C3CCc4ccccc4C3)CC2)C(=O)N1c1ccccc1 (configuration not stated)	x	-3%
O=C(NCCN1CCC(Cc2ccccc2)CC1)C1CCCN(S(=O)(=O)c2cnc[nH]2)C1 (configuration not stated)	>57	-3%
COCCN(CC(=O)NCc1ccc(F)cc1)C(=O)CCC(=O)Nc1nccs1	>57	-2%
COc1ccccc1NC(=O)N(Cc1ccco1)Cc1cc2c(C)ccc(C)c2[nH]c1=O	>57	-12%
Cc1cc(C(C)(C)C)cc(C)c1COC(=O)C1CCC(=O)N1 (configuration not stated)	>57	-18%
Nc1nc(-c2ccco2)nc(N2CCCCC2)n1	>57	10%
Cc1cccc(C(=O)N2CCN(Cc3ccc4c(c3)OCO4)CC2)c1	>57	-12%
C=CCOc1ccccc1CNCc1cccnc1	>57	-7%
Cc1ccc(C)c(S(=O)(=O)NCCOC(=O)Nc2sc(=S)n(C)c2C)c1	x	-27%
CN(c1ccccc1)S(=O)(=O)c1cccc(C(=O)N2CCN(c3ccccn3)CC2)c1	>57	-12%
O=C(Nc1cnn(Cc2ccc(Cl)cc2Cl)c1)c1cc(-c2cccs2)on1	>57	-21%
c1ccc2c(c1)ccc1ncccc12	x	1%
COc1ccc(CN2CCN(S(=O)(=O)c3ccc(NC(C)=O)cc3)CC2)cc1OC	>57	-4%
Cc1csc(=Nc2c(C)n(C)n(-c3ccccc3)c2=O)n1Cc1ccccc1	>57	0%
COc1ccc(C(=O)N2CCN(S(=O)(=O)c3cc(Cl)ccc3OC)CC2)cc1	>57	8%
O=C(CN(C1CCCCC1)S(=O)(=O)c1ccc(F)cc1)NCc1ccncc1	>57	0%
O=S(=O)(c1ccc(S(=O)(=O)N2CCN(C/C=C/c3ccccc3)CC2)cc1)N1CCCC1	>57	-13%
CCC(C)Sc1nc2c(c(=O)[nH]c(=O)n2C)n1CCc1ccccc1 (configuration not stated)	>57	-8%
Nc1nc2ncc(CNc3ccc(C(=O)N[C@@H](CCC(=O)O)C(=O)O)cc3)nc2c(=O)[nH]1	>57	-9%[3.58 µM]
COCCN(CC(=O)Nc1ccccc1C)S(=O)(=O)c1ccc(S(=O)(=O)N2CCCC2)cc1	>57	u
COc1ccc(-c2nnc3sc(C(C)N4C(=O)c5ccccc5C4=O)nn23)cc1 (configuration not stated)	>57	3%
CCC1(CC)Cc2ccccc2C(N)=C1C#N	>57	u
CC1CCCCC1NS(=O)(=O)c1ccc(S(=O)(=O)NCc2ccncc2)cc1 (configuration not stated)	>57	-18%
COc1cc(C)nc(N(Cc2ccccc2)S(=O)(=O)c2ccccc2)n1	>57	u
O=C1CC(N(O)c2ccccc2)C(=O)N1Cc1ccccc1 (configuration not stated)	>57	u
CC(=O)Nc1cccc(Cn2cccn2)c1	>57	x
CN(CCC(=O)O)S(=O)(=O)c1ccccc1	>57	-1%[8 µM]
CCCn1c(SCc2ccc(Cl)cc2)nc2c1c(=O)[nH]c(=O)n2C	>57	u
OC(CNCC1CCCO1)Cn1c2ccccc2c2ccccc21 (configuration not stated)	>57	-3%
COc1ccc(OC)c(C(O)c2nc3ccccc3n2C(C)C)c1 (configuration not stated)	>57	-3%
CS(=O)(=O)Nc1cccc(-c2nc(-n3ccnc3)c3ccccc3n2)c1	>57	-1%
CCOC(=O)C1CCN(S(=O)(=O)c2ccc(NC(=O)OC)cc2)CC1	>57	-6%
CCOC(=O)Nc1cccc(Nc2ccccc2)c1	>57	-20%
CS(=O)(=O)N1CCN(C2CCN(Cc3ccccc3)CC2)CC1	>57	-6%
CC(CN1CCN(C)CC1)OC(=O)c1ccccc1Cl (configuration not stated)	>57	-11%

More results:
SMILES	SmPrx2 inh	Anthrax LT inh
CCOC(=O)Cc1nnc(NC(=O)C(CC)Sc2nncn2C)s1 (configuration not stated)	>57	0%
O=C(O)[C@H](Cc1ccccc1)NC(=O)N1CCOCC1	>57	-7%
O=C(CN1CCCCC1)Nc1cc(Cl)ccc1Cl	>57	-13%
CCC(C)NC(=O)C(Cc1ccccc1)n1cccc1 (configuration not stated)	>57	-16%
CCOc1cc2[nH]c(=O)n(CCCCC(=O)NCc3ccco3)c(=O)c2cc1OCC	>57	16%
CC1CCCCN1C(=O)CSc1nc2ccccc2n1CC(=O)N1CCc2ccccc21 (configuration not stated)	>57	4%
Cc1ccc(-c2noc(CCC(=O)NCCc3ccccc3Cl)n2)cc1	>57	-5%
COc1ccc(-c2noc(CCC(=O)Nc3cccc(C)c3)n2)cc1	>57	6%
COc1ccccc1NC(=O)CN1C(=O)C2(OCCCO2)c2ccccc21	>57	5%
CC1Cc2ccccc2N1C(=O)CCNS(=O)(=O)c1cccc2nsnc12 (configuration not stated)	>57	-1%
COc1ccc(C)cc1NC(=O)C1CCCCC1C(=O)O (configuration not stated)	>57	8%
O=C(CN(C(=O)CCC(=O)Nc1ccccn1)c1ccc2c(c1)OCO2)NCc1ccco1	>57	8%
CCn1c(SCC(=O)Nc2cc(C)on2)nnc1-c1ccncc1	>57	-11%
Cn1c(=O)c2cc(S(=O)(=O)NCCC(=O)Nc3ccc(Cl)cc3)ccc2n(C)c1=O	>57	0%
Cc1ccc(S(=O)(=O)N2CCCSCC2)cc1	>57	-15%
Cc1ccc(Cn2c(-c3nonc3N)nc3ccccc32)cc1	>57	-19%
CC(C)C[C@@H](CC(=O)N[C@@H](CCC(=O)O)CC(=O)O)NC(=O)[C@@H]1CCCC[C@H]1NC(=O)C[C@@H](NC(=O)C[C@H](Cc1ccccc1)NC(=O)[C@@H]1CNCC[C@H]1N)C(C)C	>57	-4%
COC(=O)CSc1nnc(-c2ccc(S(=O)(=O)NCc3cccs3)cc2)o1	>57	1%
CC(C)n1c(SC2CCOC2=O)nc2ccccc21 (configuration not stated)	>57	0%
CCc1nc(OCc2ccco2)c2sc3nc4c(cc3c2n1)COC(C)(C)C4	>57	u
CCOC(=O)c1c(C2CCN(C(=O)OCC)CC2)nc2ccccn12	>57	7%
O=C(NC1CCCCCCC1)C1CCN(c2nc3ccccc3o2)CC1	>57	-3%
Cn1cc(C(=O)N2CCN(C(=O)c3ccco3)CC2)c2c3ccccc3n(C)c2c1=O	>57	15%
COc1ccc(NC(=O)NCCCN2CCCC2=O)cc1	>57	-2%
COc1ccc(Cn2nnnc2CN2CCc3ccccc32)cc1	>57	-7%
C=CCN(c1ccc(C(=O)N2CCN(c3ccc(F)cc3)CC2)cc1)S(C)(=O)=O	>57	1%
COc1cc(-c2c(C#N)c(=O)[nH]c3c2c(C)nn3-c2ccccc2)ccc1O	>57	u
COc1ccc(C2NC(=O)c3n[nH]c(C)c32)c(OC)c1 (configuration not stated)	>57	7%
CCOC(=O)CC1=C(C(=O)OCC)C2(C(=O)N1)C(C(=O)OC)=C(N)Oc1ccccc12 (configuration not stated)	>57	u
CC(C)CO/N=C1/C[C@@H](O)[C@@H](O)[C@@H]2[C@@H]3C(=O)N([C@@H](C)c4ccccc4)C(=O)[C@H]3CC[C@@H]12	x	-4%[1.6 µM]
O=C1c2ccccc2C(=O)N1CCN1CCCCC1	>57	-21%
Cc1cc(=O)cc(C)[nH]1	>57	1%
CN(C)c1ccc(NC(=O)CCCc2ccccc2)cc1	>57	-2%
Cc1ccc2nsnc2c1S(=O)(=O)N(Cc1ccco1)Cc1cc2cccc(C)c2[nH]c1=O	>57	-14%
CC(=O)Nc1ccc(N2CCN(C(=O)c3cccs3)CC2)cc1	>57	-13%
CCN(CC(=O)Nc1ccc2c(c1)OCCO2)Cc1cc(=O)oc2c(C)c(C)ccc12	>57	u
CS(=O)(=O)N(CC(=O)Nc1ccc2c(c1)OCO2)c1ccc(Cl)cc1	>57	u
O=C(Nc1ccc2c(c1)OCCO2)c1cnc2n(c1=O)CCS2	>57	1%
CC1(C)CC(=O)C2=C(C1)N1CCCCC1CC2=O (configuration not stated)	>57	8%
COC(=O)c1nnn(CC(=O)Nc2ccc(C)c(F)c2)c1C(=O)OC	>57	7%

19 entries from above, ordered by SMILES length, lowest first.
SMILES	SmPrx2 inh	Anthrax LT inh
O=C(CN1CCCCC1)Nc1cc(Cl)ccc1Cl	>57	-13%
CC(C)n1c(SC2CCOC2=O)nc2ccccc21 (configuration not stated)	>57	0%
CCC(C)NC(=O)C(Cc1ccccc1)n1cccc1 (configuration not stated)	>57	-16%
CC(CN1CCN(C)CC1)OC(=O)c1ccccc1Cl (configuration not stated)	>57	-11%
O=C(Cn1nc(-c2ccccc2)ccc1=O)NCC1COCCO1 (configuration not stated)	>57	8%
O=C(c1ccco1)N1CCN(Cc2nnnn2CCc2ccccc2)CC1	>57	-2%
CCN(CC)[C@@H](C)C(=O)N1c2ccccc2Sc2ccccc21	>57	u
CCCC/C=C/C(NC(=O)c1ccc(C(=O)OC)cc1)c1ccccc1 (configuration not stated)	>57	-17%
CCC(C)Sc1nc2c(c(=O)[nH]c(=O)n2C)n1CCc1ccccc1 (configuration not stated)	>57	-8%
CC(C)(C)OC(=O)NCCCC(CCCNC(=O)OC(C)(C)C)C(=O)O	>57	-2%
CCc1nc(OCc2ccco2)c2sc3nc4c(cc3c2n1)COC(C)(C)C4	>57	u
CCC/C=C(\CCC)C(NC(=O)c1cccs1)c1ccc(C(F)(F)F)cc1 (configuration not stated)	>57	-22%
CC1CCCCN1C(=O)CSc1nc2ccccc2n1CC(=O)N1CCc2ccccc21 (configuration not stated)	>57	4%
COc1ccc(C(=O)N2CCN(S(=O)(=O)c3cc(Cl)ccc3OC)CC2)cc1	>57	8%
COc1cc(-c2c(C#N)c(=O)[nH]c3c2c(C)nn3-c2ccccc2)ccc1O	>57	u
O=C(CN1CCC(n2nnc3cc(C(F)(F)F)ccc32)CC1)N1CCc2ccccc21	>57	-4%
COc1ccccc1NC(=O)N(Cc1ccco1)Cc1cc2c(C)ccc(C)c2[nH]c1=O	>57	-12%
CN(c1ccccc1)S(=O)(=O)c1cccc(C(=O)N2CCN(c3ccccn3)CC2)c1	>57	-12%
CC(C)CO/N=C1/C[C@@H](O)[C@@H](O)[C@@H]2[C@@H]3C(=O)N([C@@H](C)c4ccccc4)C(=O)[C@H]3CC[C@@H]12	x	-4%[1.6 µM]

The list goes on.
SMILES	SmPrx2 inh	Anthrax LT inh
O=C(O)C1CCCCN1S(=O)(=O)c1ccc(Cl)s1 (configuration not stated)	>57	-4%
Cc1ccc(C(=O)CSc2nnc(-c3ccco3)n2Cc2ccccc2)cc1	>57	-5%
COc1ccc(C2C(C(=O)c3ccco3)=C(O)C(=O)N2Cc2cccnc2)cc1OC (configuration not stated)	x	-2%
Cc1ccc2nc(NC3=NCN(Cc4ccc5c(c4)OCO5)CN3)nc(C)c2c1	>57	0%
CNCCNS(=O)(=O)c1cccc2cnccc12	>57	u
Nn1c(COc2ccccc2)nnc1SC(F)F	>57	-3%
CN1CCN(Cc2c(O)ccc3occ(C(=O)c4ccccc4)c23)CC1	>57	-23%
O=C(NCC(O)c1ccccc1)c1cccc(S(=O)(=O)N2CCOCC2)c1 (configuration not stated)	>57	11%
